Compound activity: PubChem BioAssay, several laboratories
HNF4A DNA FP: change in binding of human HNF4A to DNA, primary screen, biochemical, fluorescence polarization, FITC-DNA | 1 h | activity change, % at 10 µM | 360,000 tested, 0.3% active; in the data active means activity change above about 30%, passing the limit was not always enough;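 further: controls were the assay level and a saturating level of protein; the project sought stronger binding though the title names inhibitors; some compounds called inactive have numbers as strong as hits; positive values seem to mean higher polarization but the record does not say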
Target sequence (P41235 whole entry, looked up): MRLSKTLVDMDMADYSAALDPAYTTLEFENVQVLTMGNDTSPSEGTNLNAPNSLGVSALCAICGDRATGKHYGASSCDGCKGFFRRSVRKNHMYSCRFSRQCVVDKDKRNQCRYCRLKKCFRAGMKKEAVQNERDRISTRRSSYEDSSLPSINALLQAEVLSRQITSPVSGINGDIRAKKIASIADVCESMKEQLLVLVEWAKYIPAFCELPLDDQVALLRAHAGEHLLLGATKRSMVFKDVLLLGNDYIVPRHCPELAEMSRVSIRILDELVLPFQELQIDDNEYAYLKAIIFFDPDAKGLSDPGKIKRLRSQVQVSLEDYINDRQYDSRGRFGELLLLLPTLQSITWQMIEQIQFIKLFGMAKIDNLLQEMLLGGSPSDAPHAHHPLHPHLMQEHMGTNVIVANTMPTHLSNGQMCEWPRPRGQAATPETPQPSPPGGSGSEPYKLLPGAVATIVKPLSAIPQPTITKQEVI
Ecoli growth: E. coli growth inhibition, primary screen, OD600; Escherichia coli growth, 23 h; stronger effect = lower value; OD600 absorbance (no concentration beside the values); 330,000 tested, 0.21% active;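 active means OD600 absorbance below the run mean of sample wells minus 3.6 SD, in any replicate, cut at about 0.56 in these data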;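 further: stock transfer was 300 nL into about 60 µL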
ALR H2O2 inh: inhibitors of human ALR sulfhydryl oxidase, primary screen, biochemical, H2O2 detection, HRP-luminol luminescence, single point | purified ALR, DTT oxidation | inhibition, % (concentration not given with the values) | FAD-linked sulfhydryl oxidase ALR (Homo sapiens), P55789 | 290,000 tested, 3.8% active;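 active means mean and each replicate at 75% or more; inconclusive means only one of the two met; inactive means neither met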;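 further: stock transfer was 7.5 nL into about 7.5 µL; 0% = neutral wells and 100% = wells with inactivated enzyme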
Target sequence (P55789 whole entry, looked up): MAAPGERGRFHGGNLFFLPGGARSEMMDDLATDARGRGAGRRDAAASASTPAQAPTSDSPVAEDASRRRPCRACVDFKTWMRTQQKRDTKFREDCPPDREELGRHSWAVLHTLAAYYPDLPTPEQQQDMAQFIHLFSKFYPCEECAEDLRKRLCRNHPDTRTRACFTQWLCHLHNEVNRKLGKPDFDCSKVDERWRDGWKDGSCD
Ecoli rRNA inh: reduced GFP signal of wild-type E. coli, primary screen, bacterial rRNA inhibitor project, GFP/RFP fluorescence, OD600, single point. E. coli WT GFP vs humanized-ribosome RFP mutants, 24 h; stronger effect = lower value; DMSO median 0, no signal -100. 350,000 tested, 1.6% active. GFP signal change (wild-type ribosome), % (test concentration not listed);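 active means significant combined selectivity score with lowered wild-type GFP, culture density cut under 30%, mutant RFP and density less affected; inactive means any of these conditions unmet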; further: one replicate is shown; some compounds called inactive have numbers as strong as hits
Vif A3G: inhibitors of Vif binding to APOBEC3G peptide, primary screen, biochemical, TR-FRET, GST-Vif 1-94, biotin-A3G peptide, dose response retest (AID 1117319) | 260,000 tested, 0.57% active | TR-FRET GST-Vif / biotin-A3G peptide binding; higher % means a stronger effect; test concentration not given here; strong numbers were not always called active | inhibition, %, or IC50 in µM where a hit was titrated;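 active means above the screen mean plus three standard deviations and confirmed in dose response; inconclusive means results disagree or hit not tested in dose response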;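 further: Vif residues 1-94 fused to GST binding biotinylated APOBEC3G peptide 110-148; 0% = full assay without inhibitor and 100% = GST in place of GST-Vif; retest series ran down from 100 µM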
FGF22 binding: binders of human FGF22 protein, primary screen, FGF22 synaptogenesis inhibitor project, biophysical, thermal shift, single point; Fibroblast growth factor 22 (Homo sapiens), Q9HCT0; recombinant FGF22 thermal shift, SYPRO orange fluorescence; percent of sucrose octasulfate shift, DMSO zero; calls only at 9.99 µM; 340,000 tested, 1.5% active;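 active means melting point raised past a set limit in the mean and every replicate; inconclusive means no clear call; three in four hits are not shown here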
Target sequence (Q9HCT0 whole entry, looked up): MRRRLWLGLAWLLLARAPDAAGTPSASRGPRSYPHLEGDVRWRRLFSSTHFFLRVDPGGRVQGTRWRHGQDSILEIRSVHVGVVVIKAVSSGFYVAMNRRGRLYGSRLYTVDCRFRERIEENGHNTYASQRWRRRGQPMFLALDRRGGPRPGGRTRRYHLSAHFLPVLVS
AF4-AF9 inh: inhibitors of AF4 peptide binding to AF9, primary screen, biochemical, AlphaScreen, biotin-AF4 peptide, FLAG-AF9, single point; Protein AF-9 (Homo sapiens), P42568; inhibition, % at 10 µM; 350,000 tested, 0.47% active;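 active means every replicate reaching a set inhibition limit, whatever the replicate mean, cut at about 25% in these data; inconclusive means mean inhibition reaches that limit but some replicates miss it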;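 further: 0% = plate neutral control median and 100% = total signal loss; the record names both 10 and 1 µM as test concentration; the first replicate is given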
Ecoli rRNA inh OD600: recorded beside Ecoli rRNA inh, whose call it bears; OD600 change, %; measured here: OD600 growth;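 optical density of the mix in the first replicate; 0 = DMSO median and -100 = no signal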
Ecoli rRNA inh RFP: second read-out of Ecoli rRNA inh, no call of its own (marks repeat the call); RFP signal change, %; measured here: RFP humanized mutant strains;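 first replicate; 0 = DMSO median and -100 = no signal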
* marks the source's active call; other numbers are inactive results; i = inactive; ? = inconclusive; / = not tested or not shown.

SMILES	HNF4A DNA FP	Ecoli growth	ALR H2O2 inh	Ecoli rRNA inh	Ecoli rRNA inh OD600	Ecoli rRNA inh RFP	Vif A3G	FGF22 binding	AF4-AF9 inh
CC(=O)Nc1ccc(C2CN(C)CC2C(=O)c2ccc(Cl)cc2)cc1 (stereo unspecified)	7.2	0.7	/	10	9	8.3	26%	i	4.8
Clc1ccccc1CN1CCNCC1	-0.8	0.67	-13	12	11	1.0	4%	i	-4.6
CCOP(=O)(OCC)C(c1ccccc1)N(C)C=O (stereo unspecified)	3.6	0.69	2	/	/	/	12%	/	/
COC(=O)[C@@]1(C#N)[C@@H]2C=CC(C(C)=O)=CN2[C@@H](C(N)=O)[C@@H]1c1ccc(F)cc1	-6.2	0.69	7	7	-7	9.5	7%	i	-0.7
Cn1c(O)c(C=NCCCC(=O)O)c(=O)n(C)c1=O	-1.2	0.72	-12	-3	4	-2.4	8%	/	/
COc1ccc2[nH]c3c(c2c1)CCN[C@H]3C	3.3	0.68	1	8	11	4.7	/	i	13
O=C1NC(=O)N(CCNc2ncc(C(F)(F)F)cc2Cl)C(=O)C1/C=N/OCc1c(F)cccc1Cl (stereo unspecified)	0.3	/	-7	/	/	/	5%	/	/
CCc1ccc(CNCCc2ccccc2F)cc1	3.3	0.64	-21	10	6	-2.5	1%	i	4.3
C=Cn1ccnc1P(=S)(c1ccc(N(C)C)cc1)c1nccn1C=C	-4.6	0.67	-11	-12	-10	4.3	6%	i	?
CC12CCC3C(CC=C4CC(O)CCC43C)C1C/C(=C\c1cccc(F)c1)C2=O (stereo unspecified)	1.1	0.68	-15	/	/	/	/	/	4.4
CCN(CC)C(=O)Cn1cc(C=C2C(=O)N(C)C(=O)N(C)C2=O)c2ccccc21	-2.3	0.67	1	21	21	-0.3	-22%	i	-7.4
Cn1ncnc2c(=O)n(C)c(=O)nc1-2	112	0.048*	33	/	/	/	/	/	/
O=C(Cc1ccccc1)N1CC2(C1)[C@@H](c1ccccc1)[C@@H](CO)N2Cc1cccc(F)c1	/	/	/	-15	-50	4.9	/	i	3.7
C=C(C)[C@H]1CN[C@H](C(=O)O)[C@H]1CC(=O)O	3.0	/	-15	4	10	-1.8	/	i	-0.7
COC/C=C1\CN2C3C[C@@H]1[C@H]1COC4=Nc5cc(OC)c(OC)c(OC)c5[C@@]43C[C@@H]12	2.4	0.78	-42	/	/	/	/	i	-0.2
CC(O)(CS(=O)(=O)c1ccccc1)C(=O)Nc1ccc(C(F)(F)F)cc1 (stereo unspecified)	3.3	0.72	-2	/	/	/	15%	/	/
Cc1cc(/C=C2\C(=O)NC(=O)N(c3ccccc3)C2=O)c(C)n1-c1ccc(C(=O)O)c(Cl)c1	-3.0	0.72	47	27	20	7.3	/	i	-0.9
Cc1ccc(CN2CC3CC(C2)c2cccc(=O)n2C3)cc1 (stereo unspecified)	2.1	0.68	-4	/	/	/	3%	/	/
C=CCn1c(O)c(/C=N/N2CCCCC2)c(=O)[nH]c1=O	1.6	0.7	36	12	13	0.7	/	i	-2.0
CCCCn1c(C)c(C(=O)OCC)c2c(CN3CCCC3)c(O)ccc21	-0.8	0.64	10	-1	-3	2.7	/	i	11

Some of the entries so far, comma-delimited.
smiles,HNF4A DNA FP,Ecoli growth,ALR H2O2 inh,Ecoli rRNA inh,Ecoli rRNA inh OD600,Ecoli rRNA inh RFP,Vif A3G,FGF22 binding,AF4-AF9 inh
Cn1ncnc2c(=O)n(C)c(=O)nc1-2,112,0.048*,33,/,/,/,/,/,/
O=C(Cc1ccccc1)N1CC2(C1)[C@@H](c1ccccc1)[C@@H](CO)N2Cc1cccc(F)c1,/,/,/,-15,-50,4.9,/,i,3.7
C=C(C)[C@H]1CN[C@H](C(=O)O)[C@H]1CC(=O)O,3.0,/,-15,4,10,-1.8,/,i,-0.7
COC/C=C1\CN2C3C[C@@H]1[C@H]1COC4=Nc5cc(OC)c(OC)c(OC)c5[C@@]43C[C@@H]12,2.4,0.78,-42,/,/,/,/,i,-0.2
CC(O)(CS(=O)(=O)c1ccccc1)C(=O)Nc1ccc(C(F)(F)F)cc1 (stereo unspecified),3.3,0.72,-2,/,/,/,15%,/,/
Cc1cc(/C=C2\C(=O)NC(=O)N(c3ccccc3)C2=O)c(C)n1-c1ccc(C(=O)O)c(Cl)c1,-3.0,0.72,47,27,20,7.3,/,i,-0.9
Cc1ccc(CN2CC3CC(C2)c2cccc(=O)n2C3)cc1 (stereo unspecified),2.1,0.68,-4,/,/,/,3%,/,/
C=CCn1c(O)c(/C=N/N2CCCCC2)c(=O)[nH]c1=O,1.6,0.7,36,12,13,0.7,/,i,-2.0
CCCCn1c(C)c(C(=O)OCC)c2c(CN3CCCC3)c(O)ccc21,-0.8,0.64,10,-1,-3,2.7,/,i,11

Profiles, quoted from the list:
Cn1ncnc2c(=O)n(C)c(=O)nc1-2 as listed: HNF4A DNA FP = 112; Ecoli growth = 0.048*; ALR H2O2 inh = 33; Ecoli rRNA inh = /; Ecoli rRNA inh OD600 = /; Ecoli rRNA inh RFP = /; Vif A3G = /; FGF22 binding = /; AF4-AF9 inh = /
CC(=O)Nc1ccc(C2CN(C)CC2C(=O)c2ccc(Cl)cc2)cc1 (stereo unspecified) as listed: HNF4A DNA FP = 7.2; Ecoli growth = 0.7; ALR H2O2 inh = /; Ecoli rRNA inh = 10; Ecoli rRNA inh OD600 = 9; Ecoli rRNA inh RFP = 8.3; Vif A3G = 26%; FGF22 binding = i; AF4-AF9 inh = 4.8

Next section.
SMILES	HNF4A DNA FP	Ecoli growth	ALR H2O2 inh	Ecoli rRNA inh	Ecoli rRNA inh OD600	Ecoli rRNA inh RFP	Vif A3G	FGF22 binding	AF4-AF9 inh
COC(=O)C1=C(c2c(C)noc2C)C[C@@H]2CC[C@H]1N2C(=O)N1CCC(C)CC1	-0.3	/	-14	10	0	-5.0	/	i	0.5
COc1ccc(-c2nn(CCC#N)cc2C(=O)NCc2ccccc2)cc1[N+](=O)[O-]	2.7	0.68	-3	11	11	-2.0	/	i	1.9
CCc1cc(=O)[nH]c(SCCCF)n1	1.2	0.7	2	8	-1	0.8	/	/	-2.2
CCN(CC)C(=O)c1ccc(NC(=O)c2cc(S(=O)(=O)N3CCCCCC3)ccc2OC)cc1	-2.7	0.68	2	0	8	1.0	3%	i	-1.5
COC(=O)C1=C(c2c(C)noc2C)C[C@@H]2CC[C@H]1N2C(=O)NCCCOC(C)C	0.1	/	-4	-5	-12	-3.3	/	i	-6.0
O=c1cccc2n1CC1CC2CN(CC(O)CN2CC3CC(C2)c2cccc(=O)n2C3)C1 (stereo unspecified)	0.4	0.67	-1	7	4	-0.1	-1%	i	-4.2
COc1ccccc1CC1C(=O)C2CCN1CC2 (stereo unspecified)	-2.2	0.73	-1	/	/	/	2%	/	/
CC[C@]12C=CCN3CCC4(c5cc(Br)c(OC)cc5N(C)C4[C@@](O)(C(=O)OC)[C@@H]1OC(C)=O)C32 (stereo partly specified)	-1.9	0.72	56	2	0	7.0	/	i	-1.5
CCCOc1ccc(C(=O)NC(=S)N2C[C@H]3C[C@H](C2)c2cccc(=O)n2C3)cc1	-3.1	0.7	4	/	/	/	/	i	-1.4
CSc1nnc(OC(=O)N(C)C)n1-c1ccc(Cl)cc1	1.2	0.66	-8	-2	-5	-3.4	30%	i	-8.8
Cc1c(N=Nc2c(O)[nH]c(=S)[nH]c2=O)c(=O)n(-c2ccccc2)n1C	10	0.66	40	/	/	/	?	/	/
CC/C(=N\Nc1ccccc1)c1c(O)n(-c2ccccc2)c(=O)[nH]c1=O	2.9	0.68	99*	/	/	/	4%	i	0.4
COc1ccc(OCC(=O)N2CCN(C(C)C)CC2)cc1	-0.2	0.62	-2	/	/	/	8%	/	/
CC1C(C)N1CC(O)Cn1ccnc1[N+](=O)[O-] (stereo unspecified)	0.0	0.64	-6	10	12	1.1	/	i	3.1
CC1CN(CCc2ccccc2)CC(C)O1 (stereo unspecified)	-0.6	0.67	-10	/	/	/	-5%	/	/
O=C1NC(=O)C(C(CC(=O)c2ccccc2)c2ccccc2)C(=O)N1 (stereo unspecified)	1.7	0.73	-296	8	9	-1.7	/	i	1.1
COc1cccc(N2C(=O)CC(=O)NC2=O)c1	5.1	0.69	-51	/	/	/	3%	/	/
O=C1CCCC2C3CCCN4CCCC(CN12)C34 (stereo unspecified)	-2.6	0.71	/	/	/	/	-6%	i	5.0
O=S(=O)(c1ccc(F)cc1)N1CN2CCN(C2)C1	-0.7	0.65	-14	-4	6	-4.8	/	i	0.5
Cc1cc(OC(C)C(=O)NCc2cccnc2)c2c3c(c(=O)oc2c1)CCC3 (stereo unspecified)	1.1	0.69	-2	2	1	-1.7	/	i	0.6
Cc1ccc(OCC(=O)N2CCN(Cc3ccc([N+](=O)[O-])cc3)CC2)cc1	-0.6	0.69	34	-6	-3	-2.9	/	i	3.9
CCOP(=O)(OCC)C(NC(=O)c1ccc(OC)cc1)C(Cl)(Cl)Cl (stereo unspecified)	-0.1	0.69	-6	-2	-6	-0.8	-6%	i	-3.2
CCCCSP1(=S)NCCCN1	2.0	0.8	-2	/	/	/	4%	/	/
[N-]=[N+]=NCCN1CCC(O)CCC1=O (stereo unspecified)	3.2	/	-2	-11	-11	-9.5	/	i	2.8
O=C(C(=O)N1CCOCC1)c1cn(Cc2ccccc2)c2ccccc12	1.1	0.7	-6	8	3	-0.4	0%	i	0.7
Cc1ccc(NC(=O)CN2C(=O)CN=C(c3ccccc3)c3cc(Cl)ccc32)cc1	-3.2	0.7	/	2	-22	19	1%	i	8.5
CS(=O)(=O)c1ccc(C2=C(CNC(=O)c3ccncc3)[C@H]3CC[C@@H](C2)N3Cc2ccco2)cc1	-3.5	/	/	4	8	-1.9	-8%	i	-2.3
CCCNS(=O)(=O)c1ccc(OCC(=O)N2CCN(C)CC2)cc1	-0.1	0.64	-5	/	/	/	0%	/	/
CCc1ccc(N2C(=O)NC(=O)/C(=C\C=C\c3ccco3)C2=O)cc1	11	0.65	98*	14	1	7.5	7.1µM*	i	-12
O=c1[nH]c2ccccc2n1C1CCN(C(c2cccs2)c2nnnn2-c2ccc3c(c2)OCCO3)CC1 (stereo unspecified)	0.8	/	/	-7	-8	-0.2	/	i	2.9
OC[C@H]1O[C@@H](n2cnc3cc(Cl)c(Cl)cc32)[C@H](O)[C@@H]1O	3.2	/	-12	/	/	/	/	i	-1.4
COc1ccc(OCC(=O)Nc2ccc(Cl)cc2C(=O)c2ccccc2)cc1	-2.5	0.73	-3	/	/	/	-1%	/	/
O=C(NC(=S)N1C[C@H]2C[C@H](C1)c1cccc(=O)n1C2)c1ccc(Cl)cc1	-1.4	0.73	6	/	/	/	/	i	-5.5
COC(=O)[C@@H]1N=C(c2ccc(OC)cc2)O[C@]12C(=O)N(C)c1cccc(Cl)c12	7.5	/	/	0	3	0.9	/	i	-0.5
COc1cc(C(=O)Nc2ccc(Br)cc2C(=O)c2ccccc2Cl)cc(OC)c1OC	1.9	0.73	-9	15	10	-3.0	16%	i	4.0
CC(=O)OC1CCC2(C)C(CCC3C4CC(N5CC5)C(C(C)=O)C4(C)CC(=O)C32)C1 (stereo unspecified)	2.0	/	/	/	/	/	/	i	0.5
Cc1ccc(-n2c(O)c(C=NCCC3=CCCCC3)c(=O)[nH]c2=O)cc1	-5.0	0.66	-3	1	8	-1.4	4%	/	-10

Some of the compounds tested; count on the stated rates, not on these rows.
